rRNA inh HTS = inhibits bacterial ribosomal RNA function over humanized ribosomes; E. coli WT GFP vs humanized-ribosome RFP mutants, fluorescence, 24 h; stronger effect = lower value; DMSO median 0, no signal -100; GFP signal change (wild-type ribosome), % (no concentration beside the values); 350,000 compounds, 1.6% hits; AID 720706;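 active means significant combined selectivity score with lowered wild-type GFP, culture density cut under 30%, mutant RFP and density less affected; inactive means any of these conditions unmet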; further: one replicate is shown; some compounds called inactive have numbers as strong as hits
T cruzi repl = blocks replication of Trypanosoma cruzi. T. cruzi beta-gal in NIH3T3, luminescence, 90 h. inhibition, % (no concentration beside the values). 300,000 compounds, 1.4% hits;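 active means mean inhibition across valid replicates above about 55%, limit read from the data; inconclusive means mean below that limit but half or more replicates reach it; inactive means mean below it, under half of replicates reach it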;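 further: signal also drops with host cell toxicity which is not excluded here; 0% = plate median of DMSO wells and 100% = zero luminescence signal; higher percent means less beta-gal luminescence so fewer parasites; stock transfer was 50 nL into about 50 µL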
Beta cell apopt = beta cell apoptosis inhibition. AID 435005. INS-1E cytokine-induced death, ATP luminescence, 48 h; percent of positive-control rescue, neutral wells zero. protection from apoptosis, % (no concentration beside the values). 300,000 compounds, 0.8% hits;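 active means all replicates at 75% or more, or half of them and the mean; inconclusive means half reach 75% but not the mean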;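 further: 0% = cytokine-treated negative control wells and 100% = positive control rescue; higher means more ATP so stronger rescue from cytokine killing; wells of about 40 µL received 100 nL stock; the first replicate is given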
Ecoli growth = inhibitors of Escherichia coli growth; OD600, 23 h; stronger effect = lower value; OD600 absorbance (concentration not given with the values); 330,000 compounds, 0.21% hits;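 active means OD600 absorbance below the run mean of sample wells minus 3.6 SD, in any replicate, cut at about 0.56 in these data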;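 further: stock transfer was 300 nL into about 60 µL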
A1 inh = inhibitors of the anti-apoptotic protein A1, read as caspase activation | AID 2462 | caspase activation, % (concentration not given with the values) | MEF A1-2A-BIM cells, Caspase-Glo 3/7 luminescence, 3 h; percent of clofoctol response, vehicle zero | 330,000 compounds, 0.066% hits;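 active means over half of replicate activation scores above 10%, or exactly half above 10 with the replicate mean above 10; inconclusive means replicate mean below 10 yet half the replicates above 10; inactive means over half of replicates below 10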;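 further: wells of about 30 µL received 50 nL stock; many hits fall short of the cut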
FGF22 binding = FGF22 (human) thermal shift binding; AID 651658; Q9HCT0; 340,000 compounds, 1.5% hits; recombinant FGF22 thermal shift, SYPRO orange fluorescence; percent of sucrose octasulfate shift, DMSO zero; calls only at 9.99 µM;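 active means melting point raised past a set limit in the mean and every replicate; inconclusive means no clear call; three in four hits are not shown here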
Target sequence (Q9HCT0 whole entry, looked up): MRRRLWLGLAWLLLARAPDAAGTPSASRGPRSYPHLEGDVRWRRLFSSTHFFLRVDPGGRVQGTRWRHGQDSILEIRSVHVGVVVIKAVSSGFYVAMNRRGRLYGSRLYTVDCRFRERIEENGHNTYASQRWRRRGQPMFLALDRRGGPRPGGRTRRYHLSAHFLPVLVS
MLL AF4-AF9 inh = MLL-AF4/AF9 protein interaction inhibition. P42568. AlphaScreen, biotin-AF4 peptide binding to FLAG-AF9. inhibition, % at 10 µM. 350,000 compounds, 0.47% hits. AID 651704;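 active means every replicate reaching a set inhibition limit, whatever the replicate mean, cut at about 25% in these data; inconclusive means mean inhibition reaches that limit but some replicates miss it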;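 further: 0% = plate neutral control median and 100% = total signal loss; the record names both 10 and 1 µM as test concentration; the first replicate is given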
Target sequence (P42568 whole entry, looked up): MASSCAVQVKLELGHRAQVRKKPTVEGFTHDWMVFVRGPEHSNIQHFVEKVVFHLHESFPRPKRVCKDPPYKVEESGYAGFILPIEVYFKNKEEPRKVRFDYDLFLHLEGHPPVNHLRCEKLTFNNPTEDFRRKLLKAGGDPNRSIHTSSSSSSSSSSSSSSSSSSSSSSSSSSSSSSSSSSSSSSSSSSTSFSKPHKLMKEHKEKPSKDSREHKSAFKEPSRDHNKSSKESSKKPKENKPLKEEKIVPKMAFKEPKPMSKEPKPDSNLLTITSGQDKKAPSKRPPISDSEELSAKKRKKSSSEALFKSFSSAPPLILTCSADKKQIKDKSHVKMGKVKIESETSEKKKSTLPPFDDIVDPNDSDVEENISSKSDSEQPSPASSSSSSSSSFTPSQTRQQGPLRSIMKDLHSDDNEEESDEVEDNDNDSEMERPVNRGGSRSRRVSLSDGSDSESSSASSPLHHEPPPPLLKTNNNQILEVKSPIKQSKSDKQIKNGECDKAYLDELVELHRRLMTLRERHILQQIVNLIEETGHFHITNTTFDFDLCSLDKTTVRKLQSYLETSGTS
UCH37 DUB inh = blocks the human deubiquitinase UCH37 | Q9Y5K5 | purified proteasome/UCH37, Ub-AMC cleavage fluorescence | inhibition, % (test concentration not listed) | 330,000 compounds, 0.33% hits;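 active means mean of two replicates above 20%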;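 further: 0% = compound-free wells with enzyme and 100% = wells lacking proteasome; stock transfer was 100 nL into about 20 µL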
Target sequence (Q9Y5K5 whole entry, looked up): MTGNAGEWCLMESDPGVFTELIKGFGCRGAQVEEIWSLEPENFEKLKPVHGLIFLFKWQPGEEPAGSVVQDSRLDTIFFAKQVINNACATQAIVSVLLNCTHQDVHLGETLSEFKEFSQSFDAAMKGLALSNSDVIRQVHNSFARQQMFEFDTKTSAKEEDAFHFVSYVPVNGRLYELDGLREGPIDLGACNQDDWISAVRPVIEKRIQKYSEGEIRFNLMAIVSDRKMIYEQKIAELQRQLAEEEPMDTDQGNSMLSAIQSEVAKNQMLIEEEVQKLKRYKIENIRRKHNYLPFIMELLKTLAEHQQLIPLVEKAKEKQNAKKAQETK
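Material: human UCH37 enzyme supplied as purified proteasome complex / Amount: 0.15 nM proteasome as dispensed / Buffer or medium: pH 7.4 Tris-HCl (50 mM) with ovalbumin, ATP-MgCl2, DTT / Times: preincubation 30 min, reaction 25 min, room temperature / Technique: AMC fluorescence from Ub-AMC cleavage, excitation 355 nm, emission 460 nm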
rRNA inh HTS OD600 = second read-out of rRNA inh HTS, no call of its own (marks repeat the call); OD600 change, %; measured here: OD600 growth;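 optical density of the mix in the first replicate; 0 = DMSO median and -100 = no signal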
rRNA inh HTS RFP = also measured in rRNA inh HTS; calls as there; RFP signal change, %; measured here: RFP humanized mutant strains;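 first replicate; 0 = DMSO median and -100 = no signal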
The depositor's hits bear a star; i = inactive; ? = inconclusive; / = not tested or not shown; & = joins results of further samples.

SMILES	rRNA inh HTS	rRNA inh HTS OD600	rRNA inh HTS RFP	T cruzi repl	Beta cell apopt	Ecoli growth	A1 inh	FGF22 binding	MLL AF4-AF9 inh	UCH37 DUB inh
COc1cccc(C(=O)CC(C#N)c2ccc(F)cc2)c1 (centres undefined)	0	-4	-1.2	-8	4	0.66	1.1	/	/	0.5
CCOc1ccc(N2CC(C(=O)Nc3ccncc3)CC2=O)cc1 (centres undefined)	3	4	0.8	7	-2	0.63	0.9	i	-3.0	0.4
COC(=O)c1ccccc1NC(=O)NC1CCCCC1	/	/	/	7	-7	0.62	-0.7	i	-2.8	0.6
Cc1cc(C)cc(OC(C)C(=O)NCCCn2ccnc2)c1 (centres undefined)	8	4	0.9	-2	-3	0.7	0.4	i	1.1	2.6
O=C(NCc1cccnc1)c1cn(-c2ccccc2)nc1-c1ccccc1	-7	-4	-4.4	-1	7	0.67	-0.8	i	-1.4	1.4
Cc1cc(C)c(C#N)c(SC(F)F)n1	/	/	/	-6	-3	0.63	0.0	/	/	1.7
Cc1ccc(-n2c(SCC(=O)Nc3ncc(Cl)cc3Cl)nc3ccccc32)cc1	-23	-17	12	15	-5	0.71	0.2	i	4.5	-1.6
Cc1cc(C)n(-c2nc3ccccc3c(=O)n2OCC(N)=O)n1	/	/	/	2	-8	0.65	-0.4	/	/	2.2
CC(C)CC(=O)N1CCN(C(=O)c2ccc(F)cc2)CC1	5	6	2.1	-17	33	0.67	-0.1	i	-9.2	2.1
Cc1cc2oc(=O)cc(CN3CCCCC3)c2cc1C	-1&-1	-5&10	-0.8&-4.6	1	5	0.67	-0.8	i	-4.8	-10
CCOC(=O)CNc1nc(Cl)nc(Nc2ccc(Cl)cc2)n1	14	5	-3.0	-4	-5	0.65	-0.2	i	3.8	1.1
CC(C)n1cc(C(=O)N2CCCC(N3CCN(c4cccc(Cl)c4)CC3)C2)cn1 (centres undefined)	0	-3	-1.2	23	0	0.72	0.2	i	-0.4	-1.4
NC(=O)c1cc(S(=O)(=O)N2CCOCC2)cs1	2	8	0.4	-1	1	0.69	1.0	i	2.6	-0.2
COC(=O)c1ccccc1NC(=O)CN1C(=O)CSC1=O	/	/	/	-16	/	0.7	-1.2	/	/	2.0
COc1ccc(C(=O)CN2Cc3ccccc3C2=N)cc1	-9	-8	-5.8	-1	-3	0.65	-0.5	i	2.1	4.9

Record cards (already shown). Order of values: rRNA inh HTS	rRNA inh HTS OD600	rRNA inh HTS RFP	T cruzi repl	Beta cell apopt	Ecoli growth	A1 inh	FGF22 binding	MLL AF4-AF9 inh	UCH37 DUB inh
COc1ccc(C(=O)CN2Cc3ccccc3C2=N)cc1 across the screens: -9	-8	-5.8	-1	-3	0.65	-0.5	i	2.1	4.9
COc1cccc(C(=O)CC(C#N)c2ccc(F)cc2)c1 (centres undefined) across the screens: 0	-4	-1.2	-8	4	0.66	1.1	/	/	0.5
Cc1cc(C)n(-c2nc3ccccc3c(=O)n2OCC(N)=O)n1 across the screens: /	/	/	2	-8	0.65	-0.4	/	/	2.2

More structures:
SMILES	rRNA inh HTS	rRNA inh HTS OD600	rRNA inh HTS RFP	T cruzi repl	Beta cell apopt	Ecoli growth	A1 inh	FGF22 binding	MLL AF4-AF9 inh	UCH37 DUB inh
COc1ccc(N(C)S(=O)(=O)c2cccc(C(=O)N3CCN(c4ccccc4)CC3)c2)cc1	1	1	-1.3	/	/	0.68	/	i	6.3	4.5
O=C(NNC(=O)C1CCCN(S(=O)(=O)c2cccc(F)c2)C1)C1CC1 (centres undefined)	7	5	-0.4	-3	/	0.65	0.6	i	-1.1	3.6
COc1cccc(C2C(C(C)=O)=C(O)C(=O)N2CCNCCO)c1 (centres undefined)	/	/	/	-4	-2	0.68	0.0	/	/	2.1
CCOC(=O)c1nn(-c2ccc(F)cc2)cc1O	-8	-33	-13	-5	-2	0.69	-2.4	i	-0.9	1.4
Cc1nnc(Nc2ccc3c(c2)OCO3)c2ccccc12	/	/	/	25	0	0.67	0.1	/	/	5.6
O=C(NCc1ccccc1F)c1cccc(S(=O)(=O)N2CCCCC2)c1	6	12	1.3	/	-7	0.7	0.4	i	-1.9	1.9
CC(C)C(=O)N1CCC(c2nc(-c3ccc(S(=O)(=O)N4CCN(C)CC4)cc3)no2)CC1	6	5	-1.1	8	-6	0.65	-0.6	i	0.2	2.5
CNc1c(NS(=O)(=O)c2ccc(Br)cc2)c(=O)oc2ccccc12	8	2	-3.3	5	-24	0.69	0.0	i	4.7	-5.9
CC(C)(O)P(=O)(O)CCc1ccccc1	9	11	0.5	-8	-4	0.68	-0.4	i	-0.3	4.9
COc1ccc(/C=C(\NC(=O)c2ccc(Cl)cc2)C(=O)NCCCN2CCOCC2)cc1OC	3	6	-1.7	-3	1	0.64	-1.4	i	-0.4	3.2
CCN(CC)CCCNC(=O)c1c(O)c2c([nH]c1=O)CCCC2	16	7	2.0	-11	2	0.67	0.5	i	3.8	3.8
CCc1ccc2c(CN3CCc4ccccc43)cc(=O)oc2c1	/	/	/	4	5	0.67	0.3	/	/	1.4
c1ccc(-c2cn3c4c(sc3n2)CCCC4)cc1	-12	-22	3.9	8	17	0.63&0.7	-6.6	i	3.0	2.0&0.9
CCC1CCCCN1CC(=O)Nc1cc(OC)c(OC)cc1C#N (centres undefined)	13	13	0.3	/	/	0.67	/	/	-1.1	3.3
N#CC12CCCCC1CC1CCCCC1(C#N)N2Cc1cccnc1 (centres undefined)	/	/	/	2	-2	0.72	-0.1	/	/	1.3
c1ccc(-c2ccn3nnnc3n2)cc1	/	/	/	5	-1	0.68	0.2	/	/	-0.7
COc1ccc(Cl)cc1C(=O)CSc1nnnn1C1CCCCC1	/	/	/	5	/	0.69	0.0	/	/	-1.5
CN(CC(=O)Nc1cccc(F)c1)C(=O)CSc1ccc(Br)cc1	-4	-14	-4.4	-9	-2	0.66	0.3	i	-11	1.2
C[C@@H](NC(=O)OC(C)(C)C)C(=O)NCC1CCC(C(=O)N[C@@H](Cc2ccccc2)C(=O)O)CC1 (some centres undefined)	13	15	2.1	-4	-6	0.66	-0.8	i	-1.3	0.4
CC1(C)Cc2cccc(OCC(=O)NCCc3ccc(S(N)(=O)=O)cc3)c2O1	/	/	/	/	-2	0.69	0.3	i	0.7	0.8
COc1cc(=O)n(C)c2c(O)cccc12	/	/	/	-13	4	0.68	?	i	-1.7	0.7
Cc1nc2ccc(NC(=S)NC3CCCCC3)cc2nc1C	-28*	-22*	-1.4*	10	3	0.66	0.6	i	-0.4	-1.1
CCOc1ccc(-c2nnc(-c3snc(-c4ccc(F)cc4)c3N=CN(C)C)o2)cc1	/	/	/	38	5	0.76	0.6	/	/	-118
Cc1ccc(-c2nc(NCc3ccco3)n(S(C)(=O)=O)n2)cc1	-7	-10	-3.3	9	-5	0.66	0.0	i	5.0	1.1
CCCCn1c(SCC(=O)c2cc(OC)ccc2OC)nc2cc(S(N)(=O)=O)ccc21	/	/	/	9	-21	0.69	-0.7	/	/	-11
CC(C)(C)N(Cc1ccccc1)C(=O)c1ccncc1	-1	-1	-3.2	-17	-8	0.7	-0.1	i	-1.4	1.7
COc1ccc(NC(=O)c2ccc3c(c2)C(=O)N(Cc2cccnc2)C3=O)c(OC)c1	/	/	/	-13	-7	0.65	0.4	/	/	2.9
CC1CCCCC12NC(=O)N(CC(=O)Nc1ccc(S(=O)(=O)N3CCOCC3)cc1)C2=O (centres undefined)	/	/	/	-11	2	0.71	0.2	/	/	1.4
COc1cccc(C=NCCCN=Cc2cccc(OC)c2O)c1O	13	7	1.1	-8	-8	0.63	0.5	i	-3.6	5.0
COc1ccc(C(=O)C2CCCN(C(=O)c3n[nH]c4c3CCCC4)C2)cc1OC (centres undefined)	4	0	1.3	-7	/	0.66	0.2	i	-1.9	5.0
COc1cccc2cc(C(C)=O)oc12	12	5	1.3	-1	-13	0.64	-0.8	/	-4.0	2.1
c1cc(C(c2nnnn2C2CCCCC2)N2CCN3CCCC3C2)ccn1 (centres undefined)	/	/	/	-1	-3	0.7	-0.9	/	/	-0.2
CNCc1cc2ccc(C)cc2[nH]c1=O	/	/	/	-18	0	0.57	-1.1	/	/	-1.1
Cc1csc(=O)n1CC(=O)Nc1ccc(S(C)(=O)=O)cc1	5	10	-2.9	/	1	0.68	-0.3	i	-8.2	1.3
CCOc1ccc(CCNC(=O)COC(=O)c2ccc3c(c2)OCCO3)cc1OCC	6	10	-2.4	-7	-7	0.64	-0.4	i	4.1	1.7
COc1ccc(S(=O)(=O)NCc2cccnc2)cc1C	4	4	-1.0	-6	3	0.64	1.1	i	3.4	3.8
Cc1nc(S/C(=C/c2ccc(-c3cccc(Cl)c3)o2)C(=O)O)n[nH]1	6	4	0.2	-15	6	/	-0.9	/	/	3.7
COc1cc(-c2nnc3sc(C4CCCCC4)nn23)cc(OC)c1OC	/	/	/	22	9	0.67	0.0	/	/	0.6
O=C(NCCCN1CCCC1=O)c1sc2ccccc2c1Cl	-6	2	-5.1	-6	4	0.62	-0.1	i	-0.9	-0.2
O=C(O)c1ccc(S(=O)(=O)NC2CCCCC2)cc1	/	/	/	4	-8	0.73	0.2	/	/	1.7
CC(C)c1csc(CN2CCC(CCC(=O)NCC3CCCO3)CC2)n1 (centres undefined)	10	12	-0.8	6	/	0.67	-0.6	i	-0.9	1.9
CC(c1ccon1)N(C)Cc1cn[nH]c1-c1ccc(-c2ccccc2)cc1 (centres undefined)	-44	-63	0.8	1	-12	0.66	0.1	i	-0.3	2.9
Cc1onc(-c2ccccc2)c1C(=O)N1CCN(S(=O)(=O)c2ccccc2Br)CC1	7	13	-1.8	-5	-4	0.68	0.4	i	1.3	1.3
CCOC(=O)/C=C/C(=O)OCC(=O)Nc1ccc(Cl)cc1Cl	5	6	-0.5	-23	-9	0.68	1.6	i	0.1	3.1
CC(=O)NC(=S)Nc1ccc(NC(=O)c2cccnc2Cl)cc1	-2	5	2.4	3	-2	0.67	0.5	i	4.6	0.1
Cn1c(=O)c2c(ncn2Cc2nnc(N)s2)n(C)c1=O	14	14	-0.6	-1	0	0.68	-0.2	i	0.2	0.0
COc1cc(OC)cc(C(=O)N[C@H](C(=O)OCc2cc(=O)oc3cc(C)ccc23)C(C)C)c1	/	/	/	24	8	0.67	0.0	/	/	-3.5
CC(C)CCn1c(O)c(N=NC(=O)c2ccco2)c2ccccc21	5	1	-1.1	12	18	0.64	-0.4	i	-25	2.0
CCN(Cc1cc(OC)c(OC)c(OC)c1)C(=S)Nc1cccc(SC)c1	-19	-14	-1.5	6	-3	0.67	0.0	i	3.4	2.0
CCC(=O)c1ccccc1OCCN1CCN(CC)CC1	30	24	0.8	1	-1	0.63	0.3	i	-1.5	2.4
COc1cccc(CNC(=O)COC(=O)C2CCN(c3ccc(C(F)(F)F)cn3)CC2)c1	-21	-40	-11	/	0	0.65	0.1	i	-0.4	0.4

Bioassay records deposited in PubChem by several laboratories.

The list is partial; count on the stated rates, not on these rows.
